D2 PAM: Beta-Arrestin HTS for Positive Allosteric Modulators of the Human D2 Dopamine Receptor: Potentiators; DiscoveRx D2 beta-arrestin cells, luminescence, 90 min; 100% = 57 uM dopamine signal; potentiation, % (test concentration not listed); 360,000 tested, 0.23% active; AID 624464, 2012; active = potentiation of 50% or more; inconclusive = 30% to 50%; inactive = 30% or less;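 note: compound concentration not given in the record; tested on top of an EC20 dose of dopamine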
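PathHunter beta-arrestin assay in DiscoveRx D2 cells. Compounds were added with an EC20 of dopamine (50 nM final) for 90 min at 37 deg C. Luminescence was read 1 h after detection reagent, with 57 uM dopamine as the EC100 control.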
CtBP-E1A blk: qHTS Assay for Inhibitors of the CtBP/E1A Interaction; CtBP / adenovirus E1A interaction (AlphaScreen); activity change, % (no concentration beside the values); 340,000 tested, 0.49% active; AlphaScreen GST-E1A/His-CtBP binding, 1536-well; active compounds read low; control for the full effect not named in the record; in the data active means activity change below about -65%; inconclusive means about -30% to -65%; inactive means above about -30%; note: % is set by controls: 0 for no effect and ±100 for the full control effect
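AlphaScreen with 125 nM GST-E1A and 125 nM His-CtBP (5X stocks) in Tris pH 8.0, 300 mM NaCl, BSA, Tween 20, TCEP. Compounds preincubated 2 h at 37 deg C, then glutathione donor/nickel acceptor beads added for 1 h at 37 deg C in dark.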
TRPML1 inh: qHTS for Inhibitors of the Human Mucolipin Transient Receptor Potential 1 (TRPML1); TRPML1-inducible cells, Ca2+ dye fluorescence, FDSS; active compounds read low; inhibition of EC80 agonist-evoked calcium signal; 390,000 tested, 0.02% active; activity change, negative = inhibition, % (test concentration not listed); Mucolipin-1 (Homo sapiens), Q9GZU1; AID 624415, 2012; in the data active means activity change below about -50%; inconclusive means about -30% to -50%; inactive means above about -30%;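 note: stimulus is agonist 54-4 at its EC80 concentration; % is set by controls: 0 for no effect and ±100 for the full control effect; compound concentration not given in the record; the text of the record puts the active cut at -80%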
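Tet-induced TRPML1-DL cells loaded with Ca8 no-wash calcium dye were read kinetically on FDSS. Compound addition was followed by EC80 agonist 54-4 (4 uM final); inhibition was read over 110 s.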
TRPV1 PAM: HTS Assay for Compounds that Act as Potentiators of the Vanilloid Receptor 1; TRPV1-expressing cells, Fluo-8 calcium influx, capsaicin EC20 potentiation; host cell line not named in the record; control for the full effect not named in the record; 320,000 tested, 0.02% active; potentiation, % at 8.33 µM; Transient receptor potential cation channel subfamily V member 1 (Homo sapiens), Q8NER1; active means potentiation above 80%; inconclusive means 30% to 80%; inactive means below 30%; note: 0% is about no effect
Target sequence (Q8NER1 whole entry, looked up): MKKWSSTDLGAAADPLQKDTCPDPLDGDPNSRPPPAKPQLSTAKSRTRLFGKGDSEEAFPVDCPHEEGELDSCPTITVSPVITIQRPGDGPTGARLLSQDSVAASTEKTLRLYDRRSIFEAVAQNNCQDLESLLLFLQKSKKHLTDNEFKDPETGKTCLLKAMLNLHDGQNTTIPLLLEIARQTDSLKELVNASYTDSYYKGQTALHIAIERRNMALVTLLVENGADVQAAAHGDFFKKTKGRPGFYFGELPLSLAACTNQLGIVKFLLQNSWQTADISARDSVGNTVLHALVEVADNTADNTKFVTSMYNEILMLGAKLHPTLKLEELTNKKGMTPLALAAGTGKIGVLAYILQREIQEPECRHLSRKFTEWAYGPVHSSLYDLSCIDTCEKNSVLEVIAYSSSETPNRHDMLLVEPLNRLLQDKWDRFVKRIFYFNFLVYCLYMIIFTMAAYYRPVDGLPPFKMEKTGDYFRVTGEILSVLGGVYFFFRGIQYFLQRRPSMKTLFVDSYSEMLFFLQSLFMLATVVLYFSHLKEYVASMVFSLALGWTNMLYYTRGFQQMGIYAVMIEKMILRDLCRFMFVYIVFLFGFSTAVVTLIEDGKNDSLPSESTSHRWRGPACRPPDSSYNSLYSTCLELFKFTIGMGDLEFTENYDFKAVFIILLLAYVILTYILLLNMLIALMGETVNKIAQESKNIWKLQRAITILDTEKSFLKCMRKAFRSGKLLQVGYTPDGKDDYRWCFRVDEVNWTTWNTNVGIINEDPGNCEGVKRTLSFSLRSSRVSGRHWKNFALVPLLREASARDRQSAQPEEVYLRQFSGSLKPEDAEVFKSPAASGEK
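Cells expressing TRPV1 were dye-loaded with Fluo-8 and read kinetically: 10 s baseline, 3 min after compound (agonist portion), then 2 min after EC20 capsaicin (allosteric enhancer portion). Calcium-bound dye fluorescence at 480/520 nm.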
Six1-Eya2 blk: qHTS Assay for Inhibitors of the Six1/Eya2 Interaction | activity change, % (concentration not given with the values) | AlphaScreen GST-Six1/His-Eya2 binding, biochemical; active compounds read low; control for the full effect not named in the record | Homeobox protein SIX1 (Homo sapiens) + Protein phosphatase EYA2 (Homo sapiens), … | 360,000 tested, 0.56% active; in the data active = activity change below about -65%; inconclusive = about -30% to -65%; inactive = above about -30%; note: % is set by controls: 0 for no effect and ±100 for the full control effect
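AlphaScreen luminescence read after one hour at 37 °C in darkness. Pin-transferred compounds met GST-Six1 and His-Eya2 protein (5X stock 250 nM/500 nM) plus glutathione donor and Ni-chelate acceptor beads (5X, 50 ug/mL).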
TRPML1 ag: qHTS for Agonists of the Human Mucolipin Transient Receptor Potential 1 (TRPML1); TRPML1-expressing cells, Ca2+ dye fluorescence, FDSS; host cell line not named in the record; reference of the full effect not given here; activation, % (test concentration not listed); 410,000 tested, 0.12% active; AID 624414, 2012; in the data active = activation above about 50%; inconclusive = about 30% to 50%; inactive = below about 30%; note: 0% is about no effect; the text of the record puts the active cut at 80%
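Cells: TRPML1-DL, 1X Tet inducer, ~16 h at 37 degrees C/5% CO2. Dye: ABD Ca8 no-wash + quencher, 45-90 min RT. Read: 10 s baseline, compound add, 110 s agonist phase; 54-4 EC80 (4uM final), 110 s antagonist phase.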
Numbers without * were called inactive; u = inconclusive; x = no result given; & = joins results of further samples.

Sequence of screens – D2 PAM	CtBP-E1A blk	TRPML1 inh	TRPV1 PAM	Six1-Eya2 blk	TRPML1 ag
1: COc1ccc(CNC(=O)c2cc(=O)c3c(C)cc(C)cc3o2)cc1
  -23	x	11	-8	8	5.0
2: Cc1sc(NC(=S)NC(=O)c2ccco2)c(C(N)=O)c1C
  -3	x	3	-2	-1	-0.8
3: Nc1ccc(S(=O)(=O)Nc2nccc(/C=C/c3ccc(Br)s3)n2)cc1
  -3	x	5	14	-14	1.1
4: OCCOCCn1c(C(CO)Nc2nc(-c3cccc(Br)c3)cs2)nc2ccccc21 (stereo not drawn)
  -11	-29	-3	x	-4	-0.8
5: Cc1ccc(C)c(OCC(=O)Nc2c[nH]c(=O)[nH]c2=O)c1
  13	11	30	-3	-3	-0.3
6: COc1ccccc1/C=C/C(=O)OCCCN(C)C
  -16	-2	-8	u	11	1.0
7: CCc1ccc(NC(=O)Nc2cc(C(=O)O)ccc2N2CC3CC(C2)c2cccc(=O)n2C3)cc1 (stereo not drawn)
  1	0	15	2	2	-0.2
8: Cc1ccc(C)c(S(=O)(=O)N2CCN(C(=O)Cc3ccsc3)CC2)c1
  -11	17	0	-21	-9	0.5
9: Cc1cc(S(=O)(=O)N2CCN(c3ccc(F)cc3)CC2)c(C)s1
  -7	5	2	x	0	1.2
10: Cc1ccc(C(=O)N/C(=C\c2cccc([N+](=O)[O-])c2)C(=O)NC(Cc2ccccc2)C(=O)O)cc1 (stereo not drawn)
  -27	8	-6	24	-6	-0.5
11: OC[C@H]1OC(O)[C@H](O)[C@@H]1O (stereo partly drawn)
  -1	6	8	4	5	0.1
12: Cn1c(SCC(=O)NCC2COc3ccccc3O2)nnc1C(F)(F)F (stereo not drawn)
  0	-5	-18	x	2	0.0
13: Cc1cc(Nc2ccccc2C(=O)O)n(-c2cccc(Cl)c2)n1
  12	x	u	14	u	1.6
14: NC(=O)C1CCN(C(=O)CCSCc2ccccc2)CC1
  2	1	2	-16	7	0.5
15: CCCC(=O)Nc1ccc(NC(=O)Cc2ccccc2)cn1
  -7	10	6	-4	0	0.3
16: Nc1cccc2c3c(oc12)CCCC3
  2	2	6	-3	-2	-0.2
17: O=C(c1ccc([N+](=O)[O-])cc1)N1CCSC1c1ccc(Br)cc1 (stereo not drawn)
  4	x	36	6	0	2.3
18: CC(C)Cn1c(S(=O)(=O)O)nc2ccccc21
  8	10	-4	30	7	0.7
19: COc1ccc(NC(=O)CC2C(=O)N(Cc3cccs3)C(=S)N2C(C)C)cc1 (stereo not drawn)
  -4	0	0	-2	-1	0.0
20: O=C(Cn1cnc2c(OCc3ccccc3)ncnc21)NCCCN1CCCC1=O
  -2	4	12	x	2	-0.4
21: NC(=O)Nn1c(CCC(=O)O)ccc1-c1ccc(Cl)cc1
  -1	2	-13	22	-2	0.0
22: COc1ccccc1NC(=S)N(CCc1ccc(OC)c(OC)c1)Cc1ccccn1
  -6	0	-6	8	-1	1.8
23: CC1CCc2nn(CC(=O)NCc3ccco3)cc2C1 (stereo not drawn)
  -4	-4	1	-6	5	-0.1
24: Cc1ccc(SCC(=O)OCC(=O)N(C)CC(=O)Nc2ccccc2Cl)cc1C
  6	0	-6	4	10	1.1
25: Cn1cccc1-c1nc2ccc(NC(=O)c3cccs3)cc2[nH]1
  -5	u	-6	15	u	-0.2
26: COc1ccc(OC)c(NC(=O)c2oc3c(c2C)C(O)CC(C)(C)C3)c1 (stereo not drawn)
  -10	-6	-21	-6	-7	1.1
27: Cc1cc(C)nc(NC(=O)CSc2nnnn2-c2ccccc2)n1
  -4	-8	-6	4	6	0.4
28: Cc1nc2oc3c(=O)[nH]cnc3c2c2c1COC(C)(C)C2
  -11	x	-5	0	-30	1.1
29: CC1(C)CSC(=NCc2ccccc2)N1C(=O)c1cccc([N+](=O)[O-])c1
  -1	6	-6	-20	7	94*
30: COC(=O)c1ccc(NC(=S)NC2c3ccccc3CC2O)cc1 (stereo not drawn)
  -10	-5	18	16	12	-0.3
31: O=C1c2ccccc2C(=O)N1c1ccc(Br)c2cccnc12
  -6	x	-5	-2	2	0.3
32: C(=C\c1ccccc1)/CSc1nnc(-c2cccnc2)o1
  7	-6	15	2	-5	1.0
33: CC1(C)Cc2c(cnn2-c2ccc(F)cc2)C(NC(=O)CN2CCCC2=O)C1 (stereo not drawn)
  3	4	0	18	3	0.6
34: CCc1c(C)sc(NC(=S)N2CCN(CC)CC2)c1C(=O)OC
  -5	-3	51	-1	-3	1.2
35: COc1cc(C2SCCS2)cc(Br)c1Oc1ncccc1[N+](=O)[O-]
  7	-20	13	x	-24	0.7
36: COc1ccc(C(CC(=O)N2CCCC(C)C2)c2c(OC)cc(OC)c3ccc(=O)oc23)cc1 (stereo not drawn)
  -13	1	12&-3	-12	-3	0.6&-0.4
37: Cc1cccc(N2C(=S)NC3c4cc(Cl)ccc4OC2(C)C3C(=O)N(C)C)c1 (stereo not drawn)
  -5	-18	-13	9	-15	1.0
38: O=[N+]([O-])c1ccc(/C=[N+](\[O-])CCO)o1
  12	x	-5	2	3	0.0
39: O=C(O)CCCC(=O)Nc1ccccc1-n1ccnc1
  -10	0	32	3	8	-0.2
40: Cc1ccc(-c2nc(C)sc2CC(=O)OCC(=O)Nc2cccc([N+](=O)[O-])c2)cc1
  -4	-13	-19	-5	-16	-0.3
41: COc1cccc(-c2nc(=S)c3c(o2)CCCC3)c1
  -4	x	-3	9	-5	1.0
42: CCCN1CCN(C(=O)c2ccc(CS(=O)c3ccc(F)cc3)o2)CC1 (stereo not drawn)
  -15	2	5	0	1	-0.1
43: O=C(NC(=S)Nn1cnnc1)c1ccccc1Br
  -4	5	23	-2	0	-0.5
44: Cc1ccc(C)c(-c2nc3ccc(N)cc3[nH]2)c1
  10	-7	30	10	-1	1.2
45: COc1ccccc1NS(=O)(=O)c1cc(NC(=O)C(C)C)ccc1N1CCCCC1
  -2	16	12	-2	-18	2.0
46: CCCCOc1ccc(N(CC(=O)NCc2ccco2)C(=O)CCC(=O)Nc2nccs2)cc1
  -12	20	10	6	23	-0.3
47: COc1ccccc1NS(=O)(=O)c1cccc(C(=O)NNC(=O)c2ccc(NC(C)=O)cc2)c1
  -3	-1	-17	2	-2	0.5
48: NC(=O)c1ccsc1NC(=O)c1ccc(S(=O)(=O)N2CCCCC2)cc1
  0	-5	11	-5	u	-1.0
49: Cc1nn(C(C)C(=O)NCc2ccc(Cl)cc2)c(=O)c2cc3occc3n12 (stereo not drawn)
  -10	2	-3	-3	4	-1.2
50: COC(=O)/C=C1\N/C(=N/c2nc(C)c3cc(OC)ccc3n2)NC1=O
  -7	-5	-7	18	-14	-0.2
51: COc1ccc(C(C)=O)cc1CSc1nc2cc(C(=O)O)ccc2c(=O)n1Cc1ccccc1
  -8	-10	11	29	11	1.4
52: COC(=O)c1sc2ccccc2c1-n1cccc1C(=O)C(=O)Nc1ccc(C)cc1
  -11	-14	13	-5	-17	0.6
53: Cc1ccc(NC(=O)C(c2ccccc2)N2CCN(CC(=O)N3CCOCC3)CC2)cc1 (stereo not drawn)
  -1	3	16	-10	1	3.2
54: O=C(CSc1nc2nn(-c3ccccc3)c(=O)c-2c2n1CCCCC2)Nc1ccc(OC(F)F)cc1
  -33	-5	11	x	-16	0.2
55: COc1cccc(NC(=O)CN(C)C(=O)c2c(C)nn(-c3ccccc3)c2Cl)c1
  -3	x	2	-4	0	0.2
56: O=C(Nc1ccccc1)Nc1ccccc1Br
  -4	-25	22	4	0	1.3
57: Cc1occc1C(=O)N/N=C/c1cccc2ccccc12
  -5	-7	-18	-7	-20	-0.7
58: Cc1ccc(NC(=S)N2CCC(NC(=O)c3cccc(F)c3)CC2)cc1
  -8	-1	10	4	2	0.6
59: CCOc1cc(S(=O)(=O)NCCc2cccc(C)c2)c(OCC)cc1-n1cnnn1
  -14	8	7	-3	2	0.0
60: O=C(N/N=C/c1cn(-c2cccs2)nc1-c1ccccc1)c1ccccc1O
  -12	-76*	-10	16	-78*	-1.0

Next section.
Sequence of screens – D2 PAM	CtBP-E1A blk	TRPML1 inh	TRPV1 PAM	Six1-Eya2 blk	TRPML1 ag
61: O=C(CCS(=O)(=O)c1ccccc1)NNC(=O)COc1ccc(F)cc1
  0	5	25	x	5	3.5
62: COc1cccc(/C=C/C(=O)N2CC(C)OC(C)C2)c1OC (stereo not drawn)
  -8	8	23	-22	0	0.0
63: Cc1nc2ccc(C(=O)Nc3cccc(OCC(=O)N(C)C)c3)cn2c1N(C)CC1CCCCC1
  1	-3	x	x	-18	-0.9
64: CCC1S/C(=C(\C#N)C(N)=O)N(c2ccc(F)cc2)C1=O (stereo not drawn)
  -21	-2	29	-10	0	1.4

Gathered by group: the entries above containing a thiophene ring, fused or not.
Sequence of screens – D2 PAM	CtBP-E1A blk	TRPML1 inh	TRPV1 PAM	Six1-Eya2 blk	TRPML1 ag
2: Cc1sc(NC(=S)NC(=O)c2ccco2)c(C(N)=O)c1C
  -3	x	3	-2	-1	-0.8
3: Nc1ccc(S(=O)(=O)Nc2nccc(/C=C/c3ccc(Br)s3)n2)cc1
  -3	x	5	14	-14	1.1
8: Cc1ccc(C)c(S(=O)(=O)N2CCN(C(=O)Cc3ccsc3)CC2)c1
  -11	17	0	-21	-9	0.5
9: Cc1cc(S(=O)(=O)N2CCN(c3ccc(F)cc3)CC2)c(C)s1
  -7	5	2	x	0	1.2
19: COc1ccc(NC(=O)CC2C(=O)N(Cc3cccs3)C(=S)N2C(C)C)cc1 (stereo not drawn)
  -4	0	0	-2	-1	0.0
25: Cn1cccc1-c1nc2ccc(NC(=O)c3cccs3)cc2[nH]1
  -5	u	-6	15	u	-0.2
34: CCc1c(C)sc(NC(=S)N2CCN(CC)CC2)c1C(=O)OC
  -5	-3	51	-1	-3	1.2
48: NC(=O)c1ccsc1NC(=O)c1ccc(S(=O)(=O)N2CCCCC2)cc1
  0	-5	11	-5	u	-1.0
52: COC(=O)c1sc2ccccc2c1-n1cccc1C(=O)C(=O)Nc1ccc(C)cc1
  -11	-14	13	-5	-17	0.6
60: O=C(N/N=C/c1cn(-c2cccs2)nc1-c1ccccc1)c1ccccc1O
  -12	-76*	-10	16	-78*	-1.0

Compound activity from PubChem.
